miR-21 FLuc = miR-21 reporter, rising signal; HeLa miR-21 FLuc reporter, luciferase, 48 h; Potency, µM (doses to about 38.3 µM), without a hit: at the highest dose reporter change, positive = more light; 340,000 tested, under 10 active; AID 2288; active = well fitted rising curve with a large enough effect; inconclusive = small, poorly fitted or top-dose-only effect; inactive = no such curve, though single readings can be large or run the other way;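 note: % of control where 0% means no effect; miR-21 action dims this reporter so a rising signal means less miR-21 action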
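HeLa cells stably expressing CMV-driven firefly luciferase with a downstream miR-21 binding sequence, endogenously expressing miR-21, were treated with titrations (up to about 40uM final) for 48 hours at 37 degree Celsius. Luciferase luminescence was read after lysis.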
* = called active by the depositor; u = inconclusive; [ ] = remark or other dose.

SMILES | miR-21 FLuc
CCCCN1C(=O)C(O)(CC(=O)c2ccc(C(C)(C)C)cc2)c2ccccc21 (stereo not drawn) | -9%
COc1ccccc1N(Cc1cc2cccc(C)c2[nH]c1=O)C(=O)c1cccc(Cl)c1 | u
CNC(=O)C1CCC(Cn2c(=O)c3sccc3n(CC(=O)Nc3ccccc3)c2=O)CC1 (stereo not drawn) | -1%
COc1ccc2c(CNCc3ccc(C)o3)c(C(=O)O)n(Cc3ccccc3)c2c1 | -11%
COc1cc(OC)c(N(C)C(=O)Nc2cn(CC(C)C)c(=O)c3ccccc23)cc1Cl | 1%
Cc1ccc(F)cc1NC(=O)Cn1c(=O)nc(-c2ccccc2F)c2cc(Cl)ccc21 | 0%
Cc1cc(C)c(Cn2c(=O)n(-c3ccccc3Cl)c(=O)c3c(C)c(C(=O)N(C)C)sc32)c(C)c1 | 3%
Cc1ccc(NC(=O)C(=O)NCC(c2cccnc2)N2CCN(C)CC2)cc1C (stereo not drawn) | -3%
CCOc1ccc(NC(=O)Cn2c(=O)n(Cc3ccc4c(c3)OCO4)c(=O)c3ccc(C(=O)NC4CCCCC4)cc32)cc1 | -3%
CCSc1nnnn1-c1cccc(C(=O)O)c1 | 0%
COc1ccc(N2CCN(c3csc4ccc(Cl)cc4c3=O)CC2)cc1 | -4%
COc1ccc(-n2c(/C=C/c3cccc(C(F)(F)F)c3)nc3ccccc3c2=O)cc1Cl | 2%
OCCN1CCN(c2ncnc3c2cnn3-c2cccc(Cl)c2)CC1 | -37%
CCOc1cc(CNC(=O)NC2COc3ccccc3C2)cc(OCC)c1OCC (stereo not drawn) | 0%
CN(C)c1ccc(CNC(=O)CN2C(=O)CCn3nc(-c4cn(C)c5ccccc45)cc32)cc1 | -3%
CCn1cc(S(=O)(=O)c2ccc(OC)cc2)c(=O)c2cc(F)c(N3CCC(C)CC3)cc21 | -3%
CCOc1ccc(NC(=O)c2ccc3c(SCC(=O)O)c4c(nc3c2)CCC4)cc1 | -13%
CCCCc1nnc(SCc2cc(=O)c3cc(C(=O)OCC)ccc3[nH]2)n1C | 5%
COc1ccc(Cl)cc1NC(=O)c1cnc(SC)nc1-c1ccccc1 | 25%
COc1ccc(CNc2nc3c(c(=O)n(C)c(=O)n3C)n2Cc2ccccc2Cl)cc1 | -10%
Cn1nnc2c(N3CCN(c4ccccc4F)CC3)ncnc21 | -32%
CCOC(=O)Cc1c(C)nc2c(-c3ccc(Cl)cc3)c(C(F)(F)F)nn2c1C | 13%
Cc1ccc(Cl)cc1NC(=O)Cc1ccc(-n2c(C)nc3cccnc32)cc1 | u
CCc1ccc(NC(=O)CCCn2nc(C)c3c(C)n(-c4ccccc4)nc3c2=O)cc1 | 2%
Cc1cc(C)c(NC(=O)Cn2c(=O)n(CC(=O)NCc3ccccc3Cl)c(=O)c3sccc32)c(C)c1 | 3%
COc1cccc(N2CCN(C(=O)c3c4c(nc5ccccc35)C(=O)N(C3CCCCC3)C4)CC2)c1 | 0%
Cc1ccc(-n2nc(C(=O)NC(C)C)c(=O)n(C)c2=O)cc1 | 4%
CCc1c(-c2ccccc2)nc2ccccc2c1C(=O)NC(C)c1ccccc1 (stereo not drawn) | 12%
CC(=O)Nc1ccc(NC(=O)Cn2c(=O)ccc3cc(S(=O)(=O)N4CCC(C)CC4)ccc32)cc1 | 2%
CCC1CCc2c(sc(NC(=O)C3c4ccccc4Oc4ccccc43)c2C(=O)OC)C1 (stereo not drawn) | -12%

Part of the list above, as tab-separated lines:
SMILES	miR-21 FLuc
CCSc1nnnn1-c1cccc(C(=O)O)c1	0%
COc1ccc(N2CCN(c3csc4ccc(Cl)cc4c3=O)CC2)cc1	-4%
COc1ccc(-n2c(/C=C/c3cccc(C(F)(F)F)c3)nc3ccccc3c2=O)cc1Cl	2%
OCCN1CCN(c2ncnc3c2cnn3-c2cccc(Cl)c2)CC1	-37%
CCOc1cc(CNC(=O)NC2COc3ccccc3C2)cc(OCC)c1OCC (stereo not drawn)	0%
CN(C)c1ccc(CNC(=O)CN2C(=O)CCn3nc(-c4cn(C)c5ccccc45)cc32)cc1	-3%
CCn1cc(S(=O)(=O)c2ccc(OC)cc2)c(=O)c2cc(F)c(N3CCC(C)CC3)cc21	-3%
CCOc1ccc(NC(=O)c2ccc3c(SCC(=O)O)c4c(nc3c2)CCC4)cc1	-13%
CCCCc1nnc(SCc2cc(=O)c3cc(C(=O)OCC)ccc3[nH]2)n1C	5%
COc1ccc(Cl)cc1NC(=O)c1cnc(SC)nc1-c1ccccc1	25%
COc1ccc(CNc2nc3c(c(=O)n(C)c(=O)n3C)n2Cc2ccccc2Cl)cc1	-10%
Cn1nnc2c(N3CCN(c4ccccc4F)CC3)ncnc21	-32%
CCOC(=O)Cc1c(C)nc2c(-c3ccc(Cl)cc3)c(C(F)(F)F)nn2c1C	13%
Cc1ccc(Cl)cc1NC(=O)Cc1ccc(-n2c(C)nc3cccnc32)cc1	u
CCc1ccc(NC(=O)CCCn2nc(C)c3c(C)n(-c4ccccc4)nc3c2=O)cc1	2%
Cc1cc(C)c(NC(=O)Cn2c(=O)n(CC(=O)NCc3ccccc3Cl)c(=O)c3sccc32)c(C)c1	3%
COc1cccc(N2CCN(C(=O)c3c4c(nc5ccccc35)C(=O)N(C3CCCCC3)C4)CC2)c1	0%
Cc1ccc(-n2nc(C(=O)NC(C)C)c(=O)n(C)c2=O)cc1	4%

Following part:
SMILES | miR-21 FLuc
COc1cc(/C=C2/SC(=S)N(CC(=O)O)C2=O)ccc1OCC(=O)Nc1ccc(C)c(C)c1 | 0%
CCc1cc(=O)oc2c3c(c(Cl)cc12)OCN(Cc1cccc(OC)c1)C3 | 0%
COc1ccc(/C=C\C(=O)NC2CC(=O)N(c3ccccc3)C2)cc1OC (stereo not drawn) | -4%
CC(C)Nc1ccc(-c2nc(-c3ccco3)no2)cc1[N+](=O)[O-] | -2%
O=C(NCc1cccc(F)c1)c1ccc(-n2cnc3cccnc32)cc1 | 6%
Cc1ccc(-n2ncc(C(=O)NCCCN3CCc4ccccc4C3)c2C2CCN(C(=O)OC(C)(C)C)CC2)cc1C | 1%
Cc1ccc(C2CC(=O)N(Cc3ccccc3F)c3c2c(C)nn3-c2nc(C)cc(C)n2)cc1 (stereo not drawn) | -8%
COc1ccc(NC(=S)N(C(C)C)C2CCN(C(C)C)CC2)cc1Cl | -8%
COc1cccc(-n2c(SCC(=O)Nc3ccc(F)cc3F)nc3c([nH]c4ccccc43)c2=O)c1 | 1%
Cc1cc(Cl)ccc1NC(=O)CN1C(=O)COc2ccc(S(=O)(=O)N3CCC(C)CC3)cc21 | 0%
COc1ccc(CNC(=O)CCc2c(C)nc3cc(-c4ccc(OC)cc4OC)nn3c2C)cc1 | 0%
O=C(CCC1N=C2c3ccccc3N=C(SCC(=O)Nc3ccccc3F)N2C1=O)NCc1ccco1 (stereo not drawn) | -14%
Cc1cc(C)c(NC(=O)Cn2c(=O)n(CCCCC(=O)NCc3ccccc3Cl)c(=O)c3ccccc32)c(C)c1 | 0%
CC(C)Oc1ccc(CNC(=O)c2ccc(CN3CC(=O)N4CCCCC4C3=O)cc2)cc1 (stereo not drawn) | 5%
CC1=C(C(=O)NCCc2ccc(Cl)cc2)C2(CCCCC2)OC1=O | -5%
COc1ccc(N2C(=O)CS(=O)(=O)C23C(=O)N(Cc2cccc(F)c2)c2ccccc23)cc1OC (stereo not drawn) | 3%
CCOC(=O)c1c(C)[nH]c(C)c1S(=O)(=O)NCC(=O)Nc1cccc(SC)c1 | -3%
Cc1ccc2c(c1)C(=O)C(=O)N2Cc1ccc(OC(C)C)cc1 | 26%
CCC1CCCCN1CCCNC(=O)c1cc2c(=O)n(CC)c3ccccc3c2s1 (stereo not drawn) | -3%
CCOc1ccc(NC(=O)Cn2c(=O)n(CCCCC(=O)NCc3ccc4c(c3)OCO4)c(=O)c3ccccc32)cc1 | -12%
CC(=O)C1=C(c2ccccc2)N(C(C)=O)n2c(nnc2C2CCCCC2)S1 | -5%
Cc1cccc(N2CCN(C(=O)CN3C(=O)COc4ccc(S(=O)(=O)N5CCOCC5)cc43)CC2)c1C | 0%
COCCCNC(=O)CCCN1C(=O)CCn2nc(-c3cn(C)c4ccccc34)cc21 | -3%
CCCCNC(=O)CCn1c(=O)c2ccccc2n(Cc2cccc(Cl)c2)c1=O | -3%
Cc1ccc2nc(-c3ccsc3)c(Nc3ccccc3C)n2c1 | 0%
Cn1c(=O)c(=O)n(C)c2cc(NS(=O)(=O)c3ccc(Br)cc3)c(Cl)cc21 | -6%
CCOc1ccc(N2CC(c3nc4ccccc4n3CC(C)C)CC2=O)cc1 (stereo not drawn) | -3%
COc1ccc(-c2nc3scc(CCNC(=O)c4cc(OC)cc(OC)c4)n3n2)cc1 | 0%
COc1cccc2c(C)cc3nnc(SCC(=O)Nc4ccc(C)cc4)n3c12 | -17%
COCCNC(=O)CSc1nc(-c2ccccc2)[nH]c1-c1ccc(C)cc1 | 15%
COc1ccc(-n2c(=O)c3ccccc3n(Cc3ccccc3Cl)c2=O)cc1 | -4%
CCc1ccc(NC(=O)CN2CCN(Cc3ccccc3)S2(=O)=O)cc1 | 0%
CCC(CC)C(=O)Nc1ccc2nc(SCC(=O)N3CCCC3)sc2c1 | -4%
COc1ccccc1OCC(=O)NC1CC(=O)N(c2ccc3c(c2)OCCO3)C1 (stereo not drawn) | -8%
O=C(NCc1ccccc1)C1CCN(S(=O)(=O)Cc2ccccc2)CC1 | -8%
Cc1cc2n(n1)CCC(=O)N2Cc1ccc(C(=O)Nc2ccc(Br)c(C)c2)cc1 | -1%
CCOc1ccc(-n2nc(CO)c(C(=O)NCc3ccccn3)n2)cc1 | 8%
COC(=O)c1ccccc1NC(=O)CCCS(=O)(=O)c1nc(-c2ccccc2OC)cc(C(F)(F)F)n1 | 3%
CCOC(=O)C1CCN(S(=O)(=O)c2ccc(N3CCCCS3(=O)=O)cc2)CC1 | 8%
CCc1nc2ccccc2n1CCCCOc1cccc(C)c1 | 29%
COCCNC(=O)C(=O)Nc1ccc2nc3n(c(=O)c2c1)CCCCC3 | 13%
O=C(Cn1c(=O)n2nc(-c3cccc(F)c3)nc2c2ccccc21)N1CCN(c2ccc(F)cc2)CC1 | -1%
COc1ccccc1CNC(=O)c1cc2sccc2n1Cc1ccc(F)cc1 | -5%
Cc1cccc(NC(=O)c2cc3c([nH]c2=O)CC(c2ccccc2)CC3=O)c1 (stereo not drawn) | 17%
Cc1ccc(NC(=O)Cn2c(=O)n(Cc3nc(C)no3)c(=O)c3cc4c(cc32)OCO4)c(Cl)c1 | -2%
Cc1cc2c(cc1NC(=O)c1ccccc1C)n(C)c(=O)c(=O)n2C | 3%
Cc1ccc(Cn2c(CNC(=O)Cc3cccc(C)c3)nc3cccnc32)cc1 | 2%
CCOC(=O)c1c(NC(=O)c2nc(SCC)ncc2Cl)sc2c1CCCC2 | 0%
COc1cccc(-c2csc(-c3c(N)c(C(=O)c4ccccc4)n4ccccc34)n2)c1 | 1%
Cc1ccccc1Nc1c(-c2ccc(N3CCOCC3)cc2)nc2ccc(Cl)cn12 | -9%
CCN1C(=O)c2ccccc2S(=O)c2ccc(C(=O)N3CCN(c4ccccc4)CC3)cc21 (stereo not drawn) | 4%
O=C(Cc1ccc(Cl)cc1)NCC(c1cccs1)S(=O)(=O)c1ccc(Cl)cc1 (stereo not drawn) | 14%
COc1ccc(Cn2c(CCC(=O)Nc3cc(OC)c(OC)c(OC)c3)nc3cccnc32)cc1 | 15%
COc1ccc(Nc2nnc(-c3ccc(C)c(S(=O)(=O)NCc4nc5ccccc5[nH]4)c3)c3ccccc23)cc1 | -6%
Nc1c(C(=O)Nc2cccc(Cl)c2)sc2nc3c(cc12)CN(Cc1ccccc1)CC3 | -1%
Cc1nc2c(C(=O)NCCCN(CC(C)C)CC(C)C)cnn2c(C)c1Cc1c(F)cccc1Cl | -3%
COc1ccc(CCC(=O)NCc2nc3cccnc3n2Cc2ccc(F)cc2)cc1 | 0%
O=c1c2cccnc2n(Cc2ccccc2F)c(=O)n1Cc1ccccc1Cl | -10%
CC(C)(C)C1CCc2c(sc(NC(=O)Cn3nnc(-c4ccccc4F)n3)c2C#N)C1 (stereo not drawn) | 6%
Cc1cc(C)c(NC(=O)CSc2nc(C)cc(C)c2C#N)c(C)c1 | -1%
Additional compounds.
SMILES | miR-21 FLuc
CCC(C)NC(=O)CSc1nc2cc3c(cc2c(=O)n1CCCCCC(=O)NCc1ccc(OC)cc1)OCO3 (stereo not drawn) | -5%
Cc1ccc(-n2cnc3cc(C(=O)NC4CCCCCC4)ccc32)cc1Cl | -7%
Cc1ccc(CN2CCc3nc(N4CCN(C)CC4)ncc3C2)s1 | -2%
COc1cc(Nc2ncc3c(n2)CCN(Cc2ccc(OC(C)C)c(OC)c2)C3)cc(OC)c1 | 29%
O=c1c2oc3ccccc3c2n(Cc2ccc(Cl)cc2)c(=O)n1Cc1ccccc1 | 1%
CCOc1ccc(S(=O)(=O)NCc2ccc3c(c2)CCN3C(=O)c2ccc(C)cc2)cc1 | -8%
COc1cccc(-c2nc(SCC(=O)NCC3CCCO3)c(-c3ccc(Cl)cc3)[nH]2)c1 (stereo not drawn) | 22%
O=C(Nc1ccc(F)cc1)C1CCN(c2nc3ccccc3n3cccc23)CC1 | 1%
Cc1ccc(CCNC(=O)c2nn(C)c3c2CSc2ccccc2-3)cc1 | -1%
CCn1c(=O)c2cc(C(=O)NCCc3cccc(C)c3)sc2c2ccccc21 | 3%
Cc1ccc(CNc2oc(-c3ccc(COc4ccc(Cl)cc4)o3)nc2C#N)cc1 | 1%
COc1c(C)cccc1C(=O)Nc1ccc(Cl)c(-c2nc3cc(C)ccc3o2)c1 | 14%
Cc1ccc(C(=O)Nc2ccc3c(c2)N(C)C(=O)c2ccccc2S3)cc1 | u
CC(C)Oc1ccc(C(=O)N(Cc2ccco2)Cc2cccs2)cc1 | -8%
CCCC[C@]12Cc3cc(OC)c(OC)cc3C(O1)C1=C(CC3(CCCCC3)OC1=O)O2 | 0%[7.66 µM]

This is a subset, so the mix of outcomes need not match the whole.
